Compound activity as filed in PubChem.
CtBP-E1A inh: qHTS Assay for Inhibitors of the CtBP/E1A Interaction | CtBP / adenovirus E1A interaction (AlphaScreen) | AlphaScreen GST-E1A/His-CtBP binding, 1536-well; stronger effect = lower value; control for the full effect not named in the record | AID 651724, 2012 | hit rate 0.49% among 340,000 | activity change, % (no concentration beside the values); in the data active means activity change below about -65%; inconclusive means about -30% to -65%; inactive means above about -30%; further: on the % scale 0 is the no-effect control and ±100 the full control effect; compound concentration not given in the record
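AlphaScreen with 125 nM GST-E1A and 125 nM His-CtBP (5X stocks) in Tris pH 8.0, 300 mM NaCl, BSA, Tween 20, TCEP. Compounds preincubated 2 h at 37 deg C, then glutathione donor/nickel acceptor beads added for 1 h at 37 deg C in dark.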
TRPV1 potentiator: HTS Assay for Compounds that Act as Potentiators of the Vanilloid Receptor 1; TRPV1-expressing cells, Fluo-8 calcium influx, capsaicin EC20 potentiation; host cell line not named in the record; control for the full effect not named in the record; Transient receptor potential cation channel subfamily V member 1 (Homo sapiens), Q8NER1; hit rate 0.02% among 320,000; potentiation, % at 8.33 µM; active means potentiation above 80%; inconclusive means 30% to 80%; inactive means below 30%; further: 0% is about no effect
Target sequence (Q8NER1 whole entry, looked up): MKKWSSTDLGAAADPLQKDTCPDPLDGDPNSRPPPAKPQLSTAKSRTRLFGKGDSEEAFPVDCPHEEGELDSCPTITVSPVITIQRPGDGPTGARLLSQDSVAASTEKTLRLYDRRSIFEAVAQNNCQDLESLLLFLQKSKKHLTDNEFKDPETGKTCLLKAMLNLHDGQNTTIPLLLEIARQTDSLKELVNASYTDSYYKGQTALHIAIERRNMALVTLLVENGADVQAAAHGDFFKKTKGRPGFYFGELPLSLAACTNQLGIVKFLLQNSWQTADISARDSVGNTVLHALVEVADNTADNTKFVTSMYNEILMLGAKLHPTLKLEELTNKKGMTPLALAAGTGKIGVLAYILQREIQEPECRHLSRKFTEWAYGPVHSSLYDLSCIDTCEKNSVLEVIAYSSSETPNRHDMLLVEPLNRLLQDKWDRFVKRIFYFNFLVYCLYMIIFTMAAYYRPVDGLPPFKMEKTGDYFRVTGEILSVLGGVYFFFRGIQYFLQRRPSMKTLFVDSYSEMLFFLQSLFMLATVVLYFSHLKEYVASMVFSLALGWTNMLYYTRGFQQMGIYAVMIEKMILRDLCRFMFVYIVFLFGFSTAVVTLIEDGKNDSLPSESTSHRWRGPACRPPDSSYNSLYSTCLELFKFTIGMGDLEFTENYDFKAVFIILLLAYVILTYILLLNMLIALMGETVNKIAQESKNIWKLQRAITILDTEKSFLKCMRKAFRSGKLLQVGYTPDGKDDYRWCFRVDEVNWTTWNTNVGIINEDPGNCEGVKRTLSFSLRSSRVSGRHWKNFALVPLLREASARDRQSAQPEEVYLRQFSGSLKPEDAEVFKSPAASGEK
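TRPV1-expressing cells were cultured overnight at 35.5C and loaded with Fluo-8 calcium dye for 40 to 90 min at room temperature. After a 10 s baseline, compound was added and calcium influx was read kinetically for 3 min (ex 480/em 520 nm).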
Sfp PPTase inh: qHTS Assay for Inhibitors of Bacillus subtilis Sfp phosphopantetheinyl transferase (PPTase) | 4'-phosphopantetheinyl transferase ffp (Bacillus subtilis), Q9F4F7 | Biochemical Sfp PPTase activity, qHTS | Potency, µM, inactives show max response, negative = inhibition, actives largely listed as inhibitors | hit rate 3.5% among 310,000 | AID 1490, 2009; active means well fitted inhibition curve with a large enough effect; inconclusive means small, poorly fitted or top-dose-only effect, or another doubt; inactive means no such curve, though single readings can be large or run the other way;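 further: the enzyme is Sfp with the accession as filed and its product quenches rhodamine fluorescence; potency means the concentration at half of the fitted maximal effect; 0% = enzyme reaction without inhibitor and -100% = no enzyme wells; top concentration of the series not given in the record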
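With Hepes-Na pH 7.6 buffer containing 10 mM MgCl2, Sfp (15 nM) modified BHQ-2-YbbR (12.5 uM) using rhodamine-CoA (5 uM). Two reads 30 minutes apart at 525/598 nm yielded each well's rate.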
Menin MLL FP FL: qHTS Assay for Inhibitors Targeting the Menin-MLL Interaction in MLL Related Leukemias: Competition With Fluorescein Labeled MLL-derived Peptide. Fluorescence polarization, fluorescein-MLL peptide displacement from menin. FP activity change, % at 61.4 µM. 290,000 tested, under 10 active; inconclusive = falling polarisation curve, or a change in total fluorescence; inactive = total fluorescence flat and polarisation flat or rising; no compound was filed as active; the % refers to the polarisation; negative = inhibition;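 further: % of control where 0% means no effect; inhibitors lower the polarisation; unlabelled MLL peptide was the positive control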
gsp antag: qHTS for Antagonists of gsp, the Etiologic Mutation Responsible for Fibrous Dysplasia/McCune-Albright Syndrome: qHTS; gsp-mutant cells, cAMP HTRF, 30 min; control for the full effect not named in the record; Potency, µM (titrated, usually from 76.9 µM), for the others: at the highest dose activity change, negative = inhibition, most hits filed as inhibitors; hit rate 0.4% among 340,000; AID 624288, 2012; active = falling curve of any shape with a large fitted effect; inconclusive = falling curve, mostly with a smaller effect; inactive = flat or rising curve; cell line not stated here;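 further: intracellular cAMP measured with PDE inhibitor Ro 20-1724 present during compound exposure; potency means the concentration at half of the fitted maximal effect; on the % scale 0 is the no-effect control and ±100 the full control effect; nearly all actives have a fitted effect of over 65% in size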
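Cells in G418 medium, seeded 16-24 h, 37C; buffer exchange to DPBS + 1 mM CaCl2, 0.5 mM MgCl2, 0.05% BSA; cpds in DMSO + […] (300 uM stock), 30 min 37C; HTRF cAMP detection.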
ClpP mod: qHTS Assay for Activators of ClpP | ATP-dependent Clp protease proteolytic subunit (Bacillus subtilis (strain 168)), P80244 | hit rate 1.9% among 340,000 | Potency, µM (doses to about 57.5 µM), for inactives: top-dose activity change, negative = active | purified B. subtilis ClpP, FRET peptide cleavage, 20 min; active = well fitted falling curve with a large enough effect; inconclusive = small, poorly fitted or top-dose-only effect; inactive = no such curve, though single readings can be large or run the other way; further: potency means the concentration at half of the fitted maximal effect; the source files actives as falling curves though it sought activators and does not explain the sign; nearly all actives have a fitted effect of over 65% in size; many hits overshoot -100%
Target sequence (P80244 whole entry, looked up): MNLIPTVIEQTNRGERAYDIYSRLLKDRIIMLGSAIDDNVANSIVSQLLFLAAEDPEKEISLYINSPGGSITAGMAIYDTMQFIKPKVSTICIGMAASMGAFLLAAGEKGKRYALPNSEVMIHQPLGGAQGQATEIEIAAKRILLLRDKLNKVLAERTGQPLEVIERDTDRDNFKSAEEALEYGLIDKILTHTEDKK
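Buffer: 100 mM Tris/HCl pH8, 100 mM KCl, 0.05% low protease BSA, 2.5% glycerol, 0.01% Tween-20. ClpP 10 microg/mL final; 20 min RT; delta FRET normalized to ADEP and DMSO controls.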
gsp ag: qHTS for Agonist of gsp, the Etiologic Mutation Responsible for Fibrous Dysplasia/McCune-Albright Syndrome: qHTS; AID 624287, 2012; Potency, µM (titrated, usually from 76.9 µM), without a hit: at the highest dose activation (cAMP increase), actives largely listed as activators; gsp mutant cells, cAMP HTRF, 30 min; control for the full effect not named in the record; hit rate 0.13% among 340,000; active = well fitted activation curve with a large enough effect; inconclusive = small, poorly fitted or top-dose-only effect, or another doubt; inactive = no such curve, though single readings can be large or run the other way; cell line not stated here;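 further: phosphodiesterase inhibitor Ro 20-1724 added with compounds to block cAMP breakdown; potency means the concentration at half of the fitted maximal effect; nearly all actives have a fitted effect of over 60% in size; about a fifth of the inactives were tested at one dose only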
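Cells stably selected in G418 were plated at 2000/well, grown 16-24 hr, then given compounds in DMSO with the PDE inhibitor […] (300 uM solution added) for 30 min at 37C; cAMP was read by HTRF.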
Active calls of the source: *; ? = inconclusive; · = no result given; & = joins results of further samples; [ ] = another dose, or the depositor's remark.

compound,CtBP-E1A inh,TRPV1 potentiator,Sfp PPTase inh,Menin MLL FP FL,gsp antag,ClpP mod,gsp ag
CCOC(=O)N1CCN(C2CCCN(C(=O)c3ccccc3C(F)(F)F)C2)CC1 (centres undefined),-6,5,9%,-0.9,-1%,-0.6%,-67%[inhibitor]
CCOc1ccc(CNC(=O)C2CCCN(c3nnc(C)c4c(C)n(-c5ccccc5)nc34)C2)cc1 (centres undefined),-17,-14,?,5.1,-33%,?,0%
Cc1ccc(NC(=O)CSc2nnc(-c3ccco3)o2)c(C)c1,1,1,6%,1.4,10%,·,20%
Cc1nnc(NC(=O)CSc2nnc(Cc3cccn3C)n2-c2ccccc2)s1,-3,6,?,0.6,-4%,1.3%,-27%
Cc1ccc(C(=O)Nc2cccnc2)cc1S(=O)(=O)N1CCOCC1,-3,-1,10%,-0.1,7%,1.2%,10%
CCOC(=O)c1c(NC(=O)c2cc(-c3cccc(O)c3)on2)sc(C(C)=O)c1C,0,0,-4%,7.5,-7%,2.7%,-15%
Cc1cc(NC2CCCC2)n2ncc(-c3ccccc3)c2n1,58,21,-15%,-7.8,-5%,3.3%,-28%
COc1ccc(N2CCN(C(=O)Cc3ncc(C(F)(F)F)cc3Cl)CC2)cc1,-1,-18,0%,-0.5,5%,-3.5%,25%
COc1ccc(CC(=O)OC(C)CN2CCCC2)cc1 (centres undefined),6,-5,6%,1.0,6%,-5.5%,-16%
Cc1ccccc1C(=O)NC(=S)Nc1sc2c(c1C#N)CCC(C)C2 (centres undefined),-6,2,-23%,-0.1,-14%,-0.4%,-39%[inhibitor]
Cc1cc(C(=O)COC(=O)c2nn(C)c(=O)c3ccccc23)c(C)n1C,0,·,·,·,-8%,·,-9%[15.4 µM]
CCc1nc2ccccc2n1CC(=O)NC1CCS(=O)(=O)C1 (centres undefined),-11,·,·,·,-3%,0.8%,13%[15.4 µM]
CN(CCCNC(=O)C1CCC(CNS(=O)(=O)c2ccccc2)CC1)Cc1ccccc1 (centres undefined),·,-4,8%,·,2%,1.4%,-31%[inhibitor]
C#CCOCCOCCOCCNc1nc(N2CCN(C(=O)Cn3cc(CCO)nn3)CC2)nc(N2CCN(C(=O)[C@H]([C@@H](C)CC)n3cc(CCCCN)nn3)CC2)n1,2,·,·,·,2%,2.0%,·
c1ccc(-c2cc3c(N4CCN(c5ccccc5)CC4)ncnc3s2)cc1,0,0,-11%,-0.3,·,·,9%[15.4 µM]
CCOC(=O)N1CCN(CC(=O)Nc2c(C(=O)OC)[nH]c3cc(C)ccc23)CC1,2,-13,-3%,2.4,6%,?,-1%
CC(C)=CCCC(C)CN1CCC(N2CCC(C(=O)N3CCCC3)CC2)CC1 (centres undefined),-1,-7,16%,-5.1,12%,-2.0%,-8%
CCOCCn1c(=O)c2c(nc3n2CC(C)CN3CCc2ccccc2)n(C)c1=O (centres undefined),-14,-21,-7%,-4.7,?,0.5%,1%
O=C(Oc1coc(CSc2ncccn2)cc1=O)c1ccco1,0,-29,89µM*,-5.5,-8%,·,?
CC(C)CCNC(=O)C(C)N(Cc1ccc(F)cc1)C(=O)c1ccc(CN2CCCCC2)o1 (centres undefined),3,23,6%,0.7,17%,0.9%,2%
CCCCNC(=O)N(C)c1nc2ccccc2s1,10,-15,-6%,0.4,1%,-1.0%,-15%[15.4 µM]
Cc1cc(C)c2nc(N(CCCN(C)C)C(=O)c3ccc(S(=O)(=O)N4CC(C)OC(C)C4)cc3)sc2c1 (centres undefined),-1,0,·,·,5%,2.1%,-11%[15.4 µM]
Cc1cc(N2C(=O)c3ccc(C(=O)Nc4ccc(O)cc4C(=O)O)cc3C2=O)no1,1,2,24%,-0.4,-6%,0.2%,15%
CC(c1n[nH]c(=S)n1-c1ccc(Cl)cc1)N(C)C (centres undefined),11,-4,-26%,5.6,16%,113%,-8%[15.4 µM]
CC(C)Cn1c2c(c(O)c(C(=O)Nc3nc4ccccc4s3)c1=O)CCCC2,4,23,13%,1.2,10%,·,10%
O=C(CSc1nnnn1-c1ccc(O)cc1)NC1CCCCC1,0,?,18%,-0.9,10%,·,?
COc1ccc(CC(=O)N2N=C(c3ccncc3)CC2(O)C(F)(F)F)cc1 (centres undefined),·,3,24%,-6.5,5%,-0.4%,13%
COc1ccc(N2CCN(C(=O)c3ccc(CS(=O)(=O)c4ccc(OC)cc4)o3)CC2)cc1,-18,-4,3%,2.4,-15%,-3.8%,-22%
Cc1c(C(=O)Nc2ccc3c(c2)CCC3)cccc1[N+](=O)[O-],3,-16,-7%,-1.1,-15%,-1.6%,24%[15.4 µM]
CCOc1ccc2nc(C(=O)N3CCCC(C)C3)sc2c1 (centres undefined),3,-10,25µM*,4.0,-7%,-2.2%,-31%[inhibitor]
COCCNC(=O)/C(C#N)=C\c1ccc(CNS(=O)(=O)c2ccc(C)cc2)o1,·,10,5%,3.1,-1%,-1.4%,?
Cc1c(NC(=O)Nc2ccccc2C(F)(F)F)c(=O)n(-c2ccccc2)n1C,3,14,7%,2.3,9%,-0.2%&-0.8%,-62%[inhibitor]
COc1ccc(-c2nc(-c3ccc4c(c3)OCO4)[nH]c2-c2ccc(OC)cc2)cc1,-15,1,15%,4.7,?,11%,11%
O=C(Nc1ccccc1C(F)(F)F)c1cc(-c2cccc(O)c2)on1,0,9,13%,2.7,5%,-1.2%,8%
Cc1cc(C(F)F)n2ncc(C(=O)NCCc3ccc(Cl)cc3)c2n1,-2,4,5%,3.7,-12%,-0.3%,0%
Cc1cc(C)c(NS(=O)(=O)c2ccc3c(c2)NC(=O)CCS3)c(C)c1,·,9,-2%,-2.1,2%,-1.9%&3.4%,10%
CCc1nn(C(CC)C(=O)NCc2cccc(OC)c2OC)c(=O)c2cc3occc3n12 (centres undefined),·,1,1%,-2.1,11%,-3.2%,25%
Cc1ccccc1OCCC(=O)Nc1ccc(Cl)cc1F,2,-6,-4%,-2.9,-4%,-2.7%,-12%
COc1ccc(Nc2cnn(-c3nc4ccccc4s3)c(=O)c2Cl)cc1,0,-15,?,5.6,?,0.4%,22%
CCC(C)(C(=O)NC1CCCC1)N(Cc1ccco1)C(=O)Cc1cccs1 (centres undefined),1,-2,9%,1.7,7%,0.2%,-24%
Cc1ccc(/C=C/C(=O)C2C(=O)c3ccccc3C2=O)cc1,-3,9,-2%,-0.8,-17%,-2.1%,9%
O=C(CCc1ccccc1)N1CCN(Cc2ccc(F)cc2Cl)CC1,-7,-19,7%,0.7,-3%,-2.3%,5%
COc1ccc(CCNCc2ccc(OCc3ccc(Cl)nc3)c(OC)c2)cc1OC,-2,-5,2%,1.8,-4%,-1.2%,?
COc1cccc(NC(=O)CN(C)C(=O)Cn2cnc3ccccc3c2=O)c1,-2,2,·,·,8%,-4.7%,-6%
O=C(CC1CCCCC1)NCC1CCCO1 (centres undefined),1,19,4%,2.4,-9%,-1.1%,-53%[inhibitor]
O=C(NN1C(=O)c2ccc(-c3ccc4c(c3)C(=O)N(NC(=O)c3cccnc3)C4=O)cc2C1=O)c1cccnc1,-22,-15,5%,-2.7,0%,·,18%
CC(C)=CCN1CCN(Cc2cccn2-c2ncccn2)CC1CCO (centres undefined),0,1,26%,0.4,0%,1.4%,-3%[15.4 µM]
COc1ccc2c(CN(C)c3ccccc3)cc(=O)oc2c1,-17,-12,?,3.8,-9%,22µM*,0%
COc1ccc(Nc2nc(C)cc(C)n2)cc1Cl,6,5,-7%,-0.8,-6%,·,-30%
O=C(CC1CC2CCC1C2)N1CCN(S(=O)(=O)c2ccc(F)cc2)CC1 (centres undefined),-5,·,·,·,·,-1.8%,-92%
O=C(O)CC(=O)Nc1ccccc1C(=O)O,1,-3,6%,-1.7,-1%,-17%,?
O=C(CCCC1=NS(=O)(=O)c2ccccc2N1)OCc1ccc(Cl)cc1,-8,-14,13%,·,-19%,-1.1%,15%
CCN(CC)CCC(c1ccc2c(c1)OCO2)c1c(OC)cc(OC)c2c(-c3ccccc3)cc(=O)oc12 (centres undefined),-28,?,-23%&-27%,3.0&3.8,6%,-2.6%,·
C/C=C/c1ccc(OCCOc2ccc(C=O)cc2OC)c(OC)c1,-8,18,?,1.2,4%,-1.9%,-22%
O=C(Cn1cnc2ccccc21)c1ccccc1,8,1,13%,-2.1,7%,·,?
O=S(=O)(c1ccc(Br)cc1)c1nc(-c2ccccc2)oc1NCCN1CCOCC1,-5,-3,4%,·,-11%,-5.2%,3%[15.4 µM]
COC(=O)c1c(C)oc(C)c1S(=O)(=O)NCc1ccc(Cl)cc1,·,?,7%,0.7,-1%,1.7%,-41%
Cc1cc(C)n2nc(S(=O)(=O)N(C)Cc3ccccc3)nc2n1,8,3,24%,2.5,6%,-1.8%,19%
CSc1ccc(S(=O)(=O)NC2CCCCC2)cc1,16,-23,0%,-0.1,3%,-1.2%,1%
COc1ccc(N2C(=O)c3ccccc3NC23C(=O)N(C)c2ccccc23)cc1 (centres undefined),6,-6,5%,1.8,-7%,-0.3%,-36%
Cc1ccc(S(=O)(=O)N2CCCC2C(=O)OCc2nc3sc(C)c(C)c3c(=O)[nH]2)cc1 (centres undefined),-9,-12,1%,1.4,-10%,-0.9%,-32%
N#Cc1cc(NC(=O)c2ccc(F)cc2)c(=O)n2c1[nH]c1ccccc12,·,8,-15%,5.4,·,·,·
